Bioassay records as filed in PubChem.
Six1-Eya2 inh: inhibitors of human Six1/Eya2 interaction; activity change, % (no concentration beside the values); AID 651725; actives 0.56% (n = 360,000); AlphaScreen GST-Six1/His-Eya2 binding, biochemical; active compounds read low; control for the full effect not named in the record; in the data active = activity change below about -65%; inconclusive = about -30% to -65%; inactive = above about -30%; further: on the % scale 0 is the no-effect control and ±100 the full control effect
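Homogeneous AlphaScreen proximity assay pairing GST-Six1 with His-tagged Eya2 (added as 5X mix: 250 nM and 500 nM) in 50 mM Tris pH 8.0, 300 mM NaCl, 1 mM TCEP. Glutathione donor and nickel acceptor beads; 1 h, 37 °C, dark.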
PINK1 modulator: modulators of PINK1 expression. PINK1 immunofluorescence, high-content cytometry, 24 h. Potency, µM (titrated, usually from 76.6 µM), for inactives: top-dose activation (PINK1 increase), actives largely listed as activators. actives 0.2% (n = 410,000); active = well fitted activation curve with a large enough effect; inconclusive = small, poorly fitted or top-dose-only effect; inactive = flat fitted curve, though single readings scatter; cell line not stated here;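 further: potency means the concentration at half of the fitted maximal effect; % of control where 0% means no effect; nearly all actives have a fitted effect of over 65% in size; a mitochondrial uncoupler was the plate control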
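Readout is PINK1 immunofluorescence, quantified alongside mitochondrial, cell and nuclear markers by laser-scanning microplate cytometry. Cells from a stable line were exposed to compound titrations (5 concentrations) for 24 hours, with CCCP controls.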
CtBP-E1A blk: inhibitors of CtBP/E1A interaction. activity change, % (concentration not given with the values). actives 0.49% (n = 340,000). AlphaScreen GST-E1A/His-CtBP binding, 1536-well; active compounds read low; control for the full effect not named in the record; in the data active means activity change below about -65%; inconclusive means about -30% to -65%; inactive means above about -30%; further: on the % scale 0 is the no-effect control and ±100 the full control effect
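GST-E1A and His-tagged CtBP (125 nM each as 5X stock) were preincubated with pin-transferred compound for 2 h at 37 °C in the dark, then glutathione donor and nickel acceptor beads were added for 1 h before AlphaScreen reading.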
TRPML1 agonist: agonists of human TRPML1 channel. Q9GZU1. TRPML1-expressing cells, Ca2+ dye fluorescence, FDSS; host cell line not named in the record; reference of the full effect not given here. activation, % (concentration not given with the values). actives 0.12% (n = 410,000); in the data active = activation above about 50%; inconclusive = about 30% to 50%; inactive = below about 30%; further: 0% is about no effect; the text of the record puts the active cut at 80%
Target sequence (Q9GZU1 whole entry, looked up): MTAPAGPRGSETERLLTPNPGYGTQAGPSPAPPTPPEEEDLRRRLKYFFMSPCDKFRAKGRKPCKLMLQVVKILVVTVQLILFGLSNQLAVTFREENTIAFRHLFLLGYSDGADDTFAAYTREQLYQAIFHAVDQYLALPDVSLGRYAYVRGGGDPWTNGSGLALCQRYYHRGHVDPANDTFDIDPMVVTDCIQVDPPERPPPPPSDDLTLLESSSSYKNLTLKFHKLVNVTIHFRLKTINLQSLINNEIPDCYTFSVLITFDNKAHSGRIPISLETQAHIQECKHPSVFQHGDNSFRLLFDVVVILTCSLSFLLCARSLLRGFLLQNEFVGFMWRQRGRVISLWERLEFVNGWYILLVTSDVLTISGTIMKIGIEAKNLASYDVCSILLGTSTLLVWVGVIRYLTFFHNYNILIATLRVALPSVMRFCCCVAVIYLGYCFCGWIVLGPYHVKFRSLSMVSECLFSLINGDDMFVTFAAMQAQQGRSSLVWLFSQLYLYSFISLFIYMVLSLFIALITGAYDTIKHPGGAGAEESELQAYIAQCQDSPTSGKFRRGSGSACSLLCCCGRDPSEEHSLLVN
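Agonist activity was taken from a 110 s kinetic Ca2+ dye read on the FDSS after pinning compounds onto TRPML1-DL cells. The cells were seeded at 1,500/well with Tet inducer, incubated about 16 h, then dye-loaded at room temperature.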
TRPML1 blocker: human mucolipin-1 channel inhibition; activity change, negative = inhibition, % (no concentration beside the values); TRPML1-inducible cells, Ca2+ dye fluorescence, FDSS; active compounds read low; inhibition of EC80 agonist-evoked calcium signal; actives 0.02% (n = 390,000); AID 624415; in the data active means activity change below about -50%; inconclusive means about -30% to -50%; inactive means above about -30%;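 further: stimulus is agonist 54-4 at its EC80 concentration; on the % scale 0 is the no-effect control and ±100 the full control effect; compound concentration not given in the record; the text of the record puts the active cut at -80%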
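TRPML1-DL cells, Tet-induced overnight (~16 h, 37 °C) at 1,500 cells/well, were loaded with Ca8 no-wash dye plus quencher for 45-90 min at room temperature. Compounds were pinned during FDSS kinetic reading; agonist 54-4 at EC80 (4 uM final) then added.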
D2 agonist: agonists of human D2 dopamine receptor (beta-arrestin); P14416; DiscoveRx PathHunter D2 beta-arrestin, luminescence, 90 min; 100% = 57 uM dopamine signal; activation, % (no concentration beside the values); actives 0.084% (n = 360,000); AID 624465; in the data active = activation above about 40%; inconclusive = about 15% to 40%; inactive = below about 15%; further: compound concentration not given in the record; the text of the record calls up to 30% inactive
Target sequence (P14416 whole entry, looked up): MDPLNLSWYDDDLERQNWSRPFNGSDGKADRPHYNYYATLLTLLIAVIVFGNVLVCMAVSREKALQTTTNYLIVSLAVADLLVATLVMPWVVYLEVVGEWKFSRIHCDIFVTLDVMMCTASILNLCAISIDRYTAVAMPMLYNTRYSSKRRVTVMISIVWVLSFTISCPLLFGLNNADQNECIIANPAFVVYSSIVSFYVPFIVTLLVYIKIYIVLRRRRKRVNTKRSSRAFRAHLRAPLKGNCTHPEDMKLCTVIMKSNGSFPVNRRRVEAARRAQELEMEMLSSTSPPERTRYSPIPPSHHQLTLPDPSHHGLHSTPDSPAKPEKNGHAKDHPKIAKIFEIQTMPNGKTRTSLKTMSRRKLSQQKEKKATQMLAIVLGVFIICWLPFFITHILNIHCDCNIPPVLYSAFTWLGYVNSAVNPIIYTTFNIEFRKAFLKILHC
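Agonist mode: compounds alone added to overnight-plated D2 PathHunter cells for 90 min at 37 C, with 57 uM final dopamine (EC100) defining full response. Beta-arrestin recruitment detected by chemiluminescent reagent, read after 1 h at ambient temperature.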
Numbers without * were called inactive; ? = inconclusive; . = no result given; & = joins results of further samples; [ ] = dose if it differs, or a comment.

SMILES | Six1-Eya2 inh | PINK1 modulator | CtBP-E1A blk | TRPML1 agonist | TRPML1 blocker | D2 agonist
CN(C)S(=O)(=O)c1ccc(C(=O)NCCS(=O)(=O)N2CCN(c3ccc(F)cc3)CC2)cc1 | -0.7 | 8.3% | -1.2 | -0.4 | 25.3 | 1.2
FC(F)(F)c1cc(-c2ccco2)nc(N2CCN(Cc3ccccc3)CC2)n1 | -0.1 | 11.6%[38.3 µM] | 1.0 | 0.3 | 0.0 | -3.0
Cc1ccc2nc3ccc(N4CCCC4)nn3c(=O)c2c1 | -8.1 | 1.4% | -8.4 | -0.6 | -20.0 | -2.1
Cc1ccc(CONC(=O)c2ccccc2Cl)cc1 | 8.7 | 1.7% | -1.2 | 0.1 | -21.7 | -4.0
CN1C(=O)c2ccccc2Sc2ccc(NC(=O)N3CCN(c4ccc(F)cc4)CC3)cc21 | . | 4.5% | . | 0.2 | 58.2 | .
CNC(=O)c1cc(NC(=O)CCn2nc(-c3ccc(C)cc3)c3ccccc3c2=O)ccc1OC | 4.4 | 0.7% | 7.7 | 0.8 | -8.3 | -4.3
CCOc1ccc(-n2nnnc2SCC(=O)Nc2ccc(NC(C)=O)cc2)cc1 | -9.5 | 5.9% | 8.3 | -0.3 | -6.4 | -4.0
CCCC(=O)Nc1ccc(-c2csc(N/N=C\c3ccncc3)n2)cc1 | -2.2 | -0.9% | -9.7 | -0.2 | -2.6 | ?
O=C(NCCS(=O)(=O)N1CCN(c2ccc(F)cc2)CC1)C1CC(=O)N(c2ccc(F)cc2)C1 (stereo unspecified) | . | 1.1% | . | 1.2 | 0.9 | .
CCOC(=O)CSc1c(-c2cccs2)[nH]c2ccccc12 | -26.5 | 1.8% | -5.6 | 1.4 | -12.8 | -3.8
COc1ccc(CNC(=O)C(=O)NCC(c2cccnc2)N2CCN(c3ccccc3F)CC2)cc1 (stereo unspecified) | . | 0.9% | . | 2.3 | 2.6 | .
N#C/C(=N\Nc1cccc(F)c1)C(=O)C1CC1 | 2.3 | 14.5% | . | 0.7 | -6.6 | -6.4
Cc1cccc(OCC(=O)Nc2ccncc2)c1C | -6.1 | -2.0% | 1.7 | 1.0 | 14.3 | 5.7
CCOCCCNS(=O)(=O)c1ccc(NC(=O)CN2C(=O)c3ccccc3C2=O)cc1 | -0.4 | -3.2% | -13.1 | 3.1 | 8.9 | -2.3
COC1CCCN(Cc2c(C(=O)N3CCc4ccccc4C3)nc3ccc(Cl)cn23)C1 (stereo unspecified) | 1.8 | 0.7% | -8.0 | -0.5 | 2.1 | 0.2

Remaining list, next part:
SMILES | Six1-Eya2 inh | PINK1 modulator | CtBP-E1A blk | TRPML1 agonist | TRPML1 blocker | D2 agonist
Cc1cc([N+](=O)[O-])nn1CCCC(=O)O | 2.1 | 0.4% | 6.8 | 0.6 | -21.8 | -3.1
COc1ccc2c(c1)OC(O)(C(F)(F)C(F)F)CC2=O (stereo unspecified) | 0.2 | . | -4.7 | 10.5 | -1.9 | 1.5
COc1ccc(CCNC(=O)C(C)SCC(=O)Nc2ccc(F)cc2)cc1 (stereo unspecified) | -1.3 | -0.8% | 5.7 | -0.7 | 3.4 | -4.7
O=C(Nc1ccccc1[N+](=O)[O-])c1cccnc1Cl | 0.5 | 2.8% | -8.2 | -0.4 | -6.7 | -0.4
Cc1ccc(S(=O)(=O)N(C)C)cc1NC(=O)[C@H](Cc1ccccc1)N1C(=O)c2ccccc2C1=O | -9.0 | 4.1% | 6.9 | 0.4 | -6.2 | 0.5
O=C(/C=C/c1cccs1)NNC(=O)c1ccccc1 | -1.0 | 0.3% | 0.6 | -0.3 | -21.2 | -3.5
CC(C)CC(=O)NC(=S)N1CCCCCC1 | 6.2 | 10.6% | 7.2 | 1.1 | 30.1 | 0.5
O=C(OCC(=O)N1CCCC1)c1c(Cl)ccc(Cl)c1Cl | 3.4 | 1.3% | -0.9 | 0.3 | -5.0 | -0.7
COc1ccc(-c2cc(=O)oc3c(C)c(OC(=O)c4cccs4)ccc23)cc1 | 11.9 | -2.1% | -4.7 | 3.6 | 0.3 | 5.3
Nc1nonc1-c1nc2ccccc2n1CC(=O)Nc1ccccc1 | 0.6 | 11.9% | -7.1 | 1.2 | 8.9 | -0.2
COc1ccccc1C(=O)NCC(=O)NCC1(N2CCCCC2)CCCCC1 | 9.7 | -2.5% | -5.4 | -0.3 | -4.8 | -6.4
CSc1ccc2c(c1)C(N1CCN(C)CC1)Cc1ccccc1S2 (stereo unspecified) | -29.3&-26.5 | -1.2%&-1.1%&-1.5% | -20.7 | 1.8&0.1 | 44.5&-3.8 | -4.5&-0.7
Cc1cccc(NC(=S)N2CCC(C(N)=O)(N3CCCCC3)CC2)c1C | 6.5 | 0.4% | . | 0.5 | 25.1 | -2.6
Cc1cc(C)cc(OCCCn2c(-c3ccc(Cl)cc3)nc3ccccc3c2=O)c1 | . | 0.7% | . | -0.5 | 21.5 | .
CC(C)COC(=O)N1CCCCC1c1cc(C(=O)NC(C)C)no1 (stereo unspecified) | 8.9 | -0.1% | -8.1 | -0.7 | . | 2.3

(further entries)
SMILES | Six1-Eya2 inh | PINK1 modulator | CtBP-E1A blk | TRPML1 agonist | TRPML1 blocker | D2 agonist
CC1SC(=S)N(c2ccc(N(C)C)cc2)C1=O (stereo unspecified) | 15.6 | 1.9% | 0.0 | -0.8 | -3.4 | 0.7
Cn1nnnc1SCC(=O)Nc1nc2c(s1)CCCC2 | 6.2 | . | 10.9 | 0.1 | 1.9 | -0.7
CCOc1ccc(N=c2oc3cc(O)ccc3cc2C(=O)NCC2CCCO2)cc1 (stereo unspecified) | -0.3 | 8.8%[38.3 µM] | 1.4 | -0.5 | 16.4 | 1.0
COC(=O)c1cccc(Nc2nc3ccccc3nc2C)c1 | -12.3 | -0.8% | -6.8 | 2.6 | 6.6 | -2.8
C(=C\c1sc(Nc2ccccc2)n[n+]1-c1ccccc1)/c1ccccc1 | 0.3 | 4.7% | -0.5 | -0.5 | 1.0 | -0.2
C=CCn1c(SCc2cc([N+](=O)[O-])cc3c2OCOC3)nc2cc(C(=O)O)ccc2c1=O | 1.7 | 3.7% | 13.2 | 0.4 | 11.7 | -0.5
O=C(Nc1ccccc1Cl)N1CCn2c(nc3ccccc32)C1 | 4.3 | -0.3% | 7.4 | 0.4 | -0.2 | 1.2
CC(=O)COc1coc(CN2CCN(c3ccc(F)cc3)CC2)cc1=O | 6.1 | -0.4% | -0.4 | 0.1 | 4.1 | 1.8
Cc1ccc(NC(=S)NNC(=O)c2cccc([N+](=O)[O-])c2)cc1Cl | -5.9 | 35.5µM* | . | -1.4 | -0.2 | -6.2
CN(Cc1ccccc1)C(=O)c1ccc(NC(=O)Cc2cccc(NC(=O)C3CCCN(C(=O)C4CCC4)C3)c2)cc1 (stereo unspecified) | 1.4 | -0.2% | -9.6 | 1.0 | 39.2 | -3.0
Cc1cc(C)c(C)c(OCCCCN2CCCCC2)c1 | 7.9 | 1.8% | 0.3 | 0.2 | 15.5 | 6.4
O=C(Cc1ccccc1)Nc1nnc(-c2ccco2)s1 | -3.9 | 0.4% | 8.3 | 0.1 | 4.2 | -0.6
O=C(CCN1CCCCC1)NNC(=O)C12CC3CC(CC(C3)C1)C2 | 17.0 | 0.4% | 7.4 | 0.0 | -3.2 | -1.1
COC(=O)[C@H]1C[C@H](OC(=O)NCc2ccccc2F)[C@@]2(O)CN(S(=O)(=O)c3ccc(C)cc3)CC2[C@H]1C(=O)OC (stereo partly specified) | -0.4 | 0.3% | -2.8 | 0.3 | -0.7 | -4.5
COc1ccc(C2CCCCCN2Cc2nc3ccccc3c(=O)n2CC(N)=O)cc1 (stereo unspecified) | -1.1 | 1.8% | 3.9 | -0.5 | -15.1 | 4.5

New compounds follow.
SMILES | Six1-Eya2 inh | PINK1 modulator | CtBP-E1A blk | TRPML1 agonist | TRPML1 blocker | D2 agonist
CCOC(=O)Cc1csc(NC(=O)CSc2nc(C)cc(C)n2)n1 | -4.1 | -0.3% | 0.7 | -0.1 | 4.3 | -1.1
C[C@H]1CN([C@@H](C)CO)C(=O)Cc2cc(NC(=O)C3CC3)ccc2O[C@H]1CN(C)Cc1ccc(Oc2ccccc2)cc1 | -10.2 | -1.1% | -8.2 | -0.4 | -3.5 | 0.9
Cc1ccc(C(=O)NC2CCN(C(=O)Nc3ccccc3)CC2)cc1 | 4.9 | 1.0% | 3.0 | -0.4 | 4.6 | 0.0
CCOc1ccc(C(=O)c2ccncc2)cc1 | -0.3 | 2.0%[38.3 µM] | 9.3 | -0.3 | 1.0 | -1.9
Cn1c(SCc2ccc([N+](=O)[O-])cc2)nc2c(c1=O)SCC2 | -4.4 | 2.0% | -14.1 | -0.3 | -9.1 | -2.2
Cc1ccc(C)c(S(=O)(=O)N2CCCOC2CNC(=O)C(=O)NCCC2=CCCCC2)c1 (stereo unspecified) | 0.6 | 3.9% | 7.1 | 0.8 | -1.3 | 0.4
CCn1cc(/C=N\NC(=O)c2ccc3c(c2)c(C)c(C)n3Cc2ccccc2)c(C)n1 | ? | 3.2% | -18.9 | 0.5 | -0.6 | 2.7
CCCCc1c(O)c2cccc3c2n(c1=O)CCC3 | 7.8 | -0.5% | 1.6 | 0.8 | 13.1 | 0.0
O=C(CSC(=S)N1CCCCC1)c1c(F)cccc1F | -18.7 | 2.8% | . | -0.3 | -0.6 | 0.6
COc1ccc(C2C(C#N)=C(N)Oc3cc(C)[nH]c(=O)c32)c(OC)c1OC (stereo unspecified) | 4.8 | -0.8% | 8.7 | -0.2 | 16.9 | -3.4
Cc1ccc(NC(=O)CN2Cc3ccccc3C2=O)c(C)c1 | . | -0.5% | . | -0.2 | 10.2 | .
O=C(O)CC12C[C@H]3C[C@@H](C1)CC(n1ncc(N4CCN(c5ccccc5)CC4)c(Cl)c1=O)(C3)C2 | 22.7 | 3.0% | 18.1 | -0.3 | -14.6 | -2.6
CCC(Oc1ccc(F)cc1)C(=O)Nc1nc(-c2ccc(F)cc2)ns1 (stereo unspecified) | . | 28.2µM* | . | 1.8 | -8.4 | .
CN(C)CCCn1c(NCc2ccc3c(c2)OCO3)nc2ccccc21 | -0.3 | 5.1%[38.3 µM] | 0.4 | 0.3 | -4.3 | -1.5
COc1ccc(C(=O)/C=C/c2ccc(N3CCCCC3)c([N+](=O)[O-])c2)c(OC)c1 | 28.2 | -1.6% | 0.0 | 12.7 | -6.9 | -1.7
CC(C)NC(=O)C(=O)NCC(c1ccc2c(c1)OCO2)N1CCOCC1 (stereo unspecified) | 2.5 | 0.0% | 4.9 | -0.6 | 0.5 | -2.3
COc1ccc(C2=NOC(C)(c3nnc(-c4ccccc4)o3)C2)cc1 (stereo unspecified) | -9.6 | -0.3% | -3.3 | -0.8 | 0.9 | 0.2
CCCOc1ccc(NC(=O)c2cc3cc(C)ccc3[nH]2)cc1 | 5.2 | 1.0% | 5.2 | -0.3 | 12.7 | 0.3
